Autofluor counter – counter-screen for toxin protease inhibitors: compound fluorescence. compound autofluorescence counterscreen, microsphere flow cytometry; hits give high values. fluorescence intensity (no concentration beside the values). actives 3.1% (n = 360,000). AID 624483;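 active means at least 3 SD above the mean of all compounds, about 16000 in these data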;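 further: 100 nL of 1 mM stock went into each well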
* marks the source's active call; other numbers are inactive results; & = joins results of further samples.

SMILES	Autofluor counter
CC1=C(C(=O)N2CCCCCC2)CC(CC(=O)NC2CC2)C(=O)N1Cc1ccccc1 (centres undefined)	4134
COC(=O)[C@]12CCCCC=C1N(CCC1=CCCCC1)C(=O)[C@H](CC(=O)NCCc1ccccc1OC)C2	5206
CC1(C(=O)NS(=O)(=O)c2cccc(C#N)c2)CCN1C(=O)C1(c2ccc(Cl)cc2)CCC1 (centres undefined)	3722
O=C1c2ccccc2C(c2nnnn2Cc2ccccc2)N1Cc1cccc(F)c1 (centres undefined)	6110&4224
COc1ccc(CNC(=O)c2ccc(-c3ccc(F)c(F)c3)c3ccoc23)cc1OC	3819
Cc1cc(C)c2c(CN3CCN(c4ccccc4)CC3)cc(=O)oc2c1	6268
COc1cc2ccc(C(C)=NOC(C)=O)cc2cc1OC	3882
NC(=O)c1cccc(-c2ccnc3c2CC(C(=O)NCc2ccco2)O3)c1 (centres undefined)	3395
O=C(Nc1ccncc1)c1cc(C2CCCCN2C(=O)CCc2ccccc2)on1 (centres undefined)	3589
COc1ccc(C(C)(O)c2nc(-c3csc4ccccc34)cs2)cc1 (centres undefined)	2857
Cc1cccc(-c2cnc(C(O)c3ccc(-c4ccccc4)cc3)[nH]2)c1 (centres undefined)	3887
COc1cccc(CN(C)CCCn2cnc3c(SC)ncnc32)c1	2861
Oc1ccc(C[C@H]2CNC(=S)N2CC2CCCN2C[C@H](Cc2ccccc2)N2C[C@H](Cc3ccc(O)cc3)N(CC3CCCCC3)C2=S)cc1 (some centres undefined)	5949
O=C(Nc1cccs1)Nc1nnc([C@@H]2C[C@H](O)[C@@H](CO)O2)s1	3915
CCCNC(=O)C1(C)CCCN(C(=O)c2cc(C(C)(C)C)nn2C)C1 (centres undefined)	3950
CC(O)(c1cccc(F)c1)c1nc(-c2cccc(C(=O)O)c2)cs1 (centres undefined)	3805
CC1(Cc2ccccc2OC(F)(F)F)C(=O)Nc2ccc(OC(F)(F)F)cc21 (centres undefined)	2905
Cc1cccc(NC(=O)COC(=O)c2c(-c3ccccc3)noc2C)c1	3789
Cn1cc(-c2coc3c(C(=O)NCc4cccnc4)cccc23)cn1	3465
CC(=O)C1=CCC(c2ccccc2)N(S(=O)(=O)c2ccccc2)C1 (centres undefined)	5946&5824
C[C@@H]1CN([C@H](C)CO)C(=O)CCCn2nncc2CO[C@H]1CN(C)S(=O)(=O)c1cn(C)cn1	3403
C[C@@H]1CN([C@@H](C)CO)C(=O)CCCn2nncc2CO[C@@H]1CN(C)C(=O)Nc1cccc(Oc2ccccn2)c1	2887
C#Cc1ccccc1OCCCN1CCC(C(O)(c2ccccc2)c2ccccc2)CC1	6643
COc1ccc(C(NC(=O)C2CCN(CCOc3ccc(F)cc3)CC2)c2cccs2)cc1 (centres undefined)	5051
CCc1ccc(NC(=O)C(C)OC(=O)Cn2[nH]c(=O)c3ccccc3c2=O)cc1 (centres undefined)	2962

2 compounds picked at random from those above, as already listed:
SMILES	Autofluor counter
COc1ccc(C(C)(O)c2nc(-c3csc4ccccc34)cs2)cc1 (centres undefined)	2857
CC1(C(=O)NS(=O)(=O)c2cccc(C#N)c2)CCN1C(=O)C1(c2ccc(Cl)cc2)CCC1 (centres undefined)	3722

Further records follow:
SMILES	Autofluor counter
COc1cc(CN2C(=O)C(C)ON=C2c2ccccc2F)cc(OC)c1 (centres undefined)	5899
COC(=O)[C@]12CCCCC=C1N(Cc1cccc3ccccc13)C(=O)[C@H](CC(=O)NCC13CC4CC(CC(C4)C1)C3)C2	4509
CCOc1ccccc1-c1ccc(C(=O)NCc2ccc(Cl)cc2)o1	5348
C[C@H](O)CNC(=O)c1[nH]cnc1C(=O)Nc1ccc(CNC(=O)OC(C)(C)C)cc1	4216
COc1ccc(-c2cc3nc(-c4ccccc4)cc(N4CCN(C(=O)c5ccoc5)CC4)n3n2)cc1	3157
COc1cc(OC)c(C2C=CC(=O)CC2)c(OC)c1 (centres undefined)	4115
O=C(Nc1ccc2c(c1)OCO2)c1ccc2sc([C@@H]3O[C@H](CO)[C@@H](O)[C@H]3O)nc2c1	3857
CC(O)(c1ccc(F)c(F)c1)c1nc(-c2cc3ccccc3o2)cs1 (centres undefined)	2907
CN1CCN(c2ccc(-c3cc(NC=O)c4ncc(-c5ccc(F)cc5)n4c3)cc2)CC1	3698
CC(C)Oc1ccc2ccccc2c1CNC[C@H]1O[C@@H](n2ccc(=O)[nH]c2=O)[C@H](O)[C@@H]1O	5912
CC(=O)c1ccc(-c2cnc3c(NC=O)cc(-c4ccc(S(C)(=O)=O)cc4)cn23)cc1	4070
C=CCC[C@@H](CCCCC)OC(=O)/C=C/[C@@H](O)[C@H](O)C[C@H](O)CC=C	6191
CCOc1ccccc1NC(=O)C1C(c2ccccc2)C1(Cl)Cl (centres undefined)	3773
Cc1cc2nc(-c3ccc(C#N)cc3)c(Cc3cccc(F)c3)n2c(C)c1Br	6990
COc1ccccc1CCc1nnc(CCC(=O)NCCC2CCCCO2)o1 (centres undefined)	3994
Cc1ccc(S(=O)(=O)N2C[C@H]3C(=O)C[C@@H]4C(=O)N(c5ccccc5)C(=O)[C@@H]4[C@@H]3C[C@H]2c2cccc(Cl)c2)cc1	5467
CC(=O)Oc1cccc(C2=CC(=O)CC(C)(C)C2=O)c1	3828
Cc1ncc(CO)c(CO)c1OCC(O)CN1CCN(c2ccc(F)cc2)CC1 (centres undefined)	5315
COc1ccccc1CCn1cnc(C)c1CC(C)C	5559
COc1ccc(Cc2noc(=O)[nH]2)cc1	4068
Cn1[nH]c2c(c1=O)[C@H](c1ccc(F)cc1)O[C@H](CCc1ccccc1)C2	4518
CCCCNC(=O)C1(C)CCN1C(=O)c1ccc(C(F)(F)F)nc1C (centres undefined)	3612
C[C@H](CO)N1C[C@H](C)[C@@H](CN(C)C(=O)Nc2ccc3c(c2)OCCO3)OCc2cnnn2CCCC1=O	3826
CC1(C(=O)NC2CCCC2)CCC(=O)N1CCc1c[nH]c2ccccc12 (centres undefined)	4337
c1ccc(CNc2nc(NCCc3ccncc3)c3sccc3n2)cc1	3908

Gathered by group, those above containing a Cl atom (four)
SMILES	Autofluor counter
CC1(C(=O)NS(=O)(=O)c2cccc(C#N)c2)CCN1C(=O)C1(c2ccc(Cl)cc2)CCC1 (centres undefined)	3722
CCOc1ccccc1-c1ccc(C(=O)NCc2ccc(Cl)cc2)o1	5348
CCOc1ccccc1NC(=O)C1C(c2ccccc2)C1(Cl)Cl (centres undefined)	3773
Cc1ccc(S(=O)(=O)N2C[C@H]3C(=O)C[C@@H]4C(=O)N(c5ccccc5)C(=O)[C@@H]4[C@@H]3C[C@H]2c2cccc(Cl)c2)cc1	5467

Four entries already listed, sorted by length of the SMILES, highest first:
SMILES	Autofluor counter
Cc1ncc(CO)c(CO)c1OCC(O)CN1CCN(c2ccc(F)cc2)CC1 (centres undefined)	5315
CCOc1ccccc1-c1ccc(C(=O)NCc2ccc(Cl)cc2)o1	5348
CC(=O)Oc1cccc(C2=CC(=O)CC(C)(C)C2=O)c1	3828
COc1cc(OC)c(C2C=CC(=O)CC2)c(OC)c1 (centres undefined)	4115

More entries
SMILES	Autofluor counter
CC(=O)N(C(C)=O)c1ccc2c(c1)OCCO2	3792
Cc1cc(F)ccc1-c1cc(C(=O)N2CCN(c3ccncc3)CC2)[nH]n1	3873
COC(=O)[C@@]1(Cc2ccc(OC)cc2)[C@H]2c3cc(C(=O)N4CCCC4)n(Cc4ccc(C)c(F)c4F)c3C[C@H]2CN1C(=O)c1ccccc1	6280
C[C@H]1CCCCO[C@H](CN(C)Cc2ccccc2)[C@@H](C)CN([C@@H](C)CO)C(=O)c2cc(NC(=O)CCC(F)(F)F)ccc2O1	3822
CCc1sc(C(=O)N(CCOC)c2c(N)n(Cc3ccccc3)c(=O)[nH]c2=O)cc1C	4159
Clc1ccc(C(c2cccs2)N2CCNCC2)cc1 (centres undefined)	3541
CCCNC(=O)C1(C)CCCN(Cc2ccccc2N(C)C)C1 (centres undefined)	3796
CC(C)CC(N)c1csc(NC(=O)Nc2ccccc2Cc2ccccc2)n1 (centres undefined)	2982
O=C(Nc1ccc2c(c1)OCO2)c1ccc2sc([C@H]3C[C@H](O)[C@@H](CO)O3)nc2c1	3408
CCNC(=O)C1CCCN(Cc2ccc(C(=O)OCC)cc2)CC1 (centres undefined)	3878
Fc1ccc(-c2nc3c4ccccc4ccn3c2Cc2ccccc2C(F)(F)F)cc1	6211
O=C(CSc1ccc(F)cc1)NC(=O)c1ccccc1	3638
COC(=O)[C@@]1(Cc2ccc(F)cc2)[C@H]2c3cc(C(=O)N(C)C)n(CCF)c3C[C@H]2CN1C(=O)c1ccccc1	5811
CC1(c2ccc3c(c2)OCCCO3)NC(=O)N(CC(=O)NCCc2ccc(F)cc2)C1=O (centres undefined)	3762
Cn1c(=O)c2cccnc2c(=O)n1C	2812
CC1=C(C(=O)N(C)C)CC(CC(=O)NCCN2CCOCC2)C(=O)N1CCC1=CCCCC1 (centres undefined)	3704
OC(c1ccccc1)C(NCc1ccccc1)c1ccccc1 (centres undefined)	3898
CCOC(=O)C1=CCC(c2cccn2C(=O)OC(C)(C)C)N(S(=O)(=O)c2ccc(C)cc2)C1 (centres undefined)	4569
CCN(CC)C(=O)C1=C(C)N(Cc2ccccc2)C(=O)C(CC(=O)NC(c2ccccc2)c2ccccc2)C1 (centres undefined)	3404
COc1cc2[nH]c(C)c(-c3ccccc3)c(=O)c2cc1Cl	4288
CCNC(=O)C1CCCN(C(=O)c2ccc3c(c2)CCO3)CC1 (centres undefined)	3801
C[C@@H]1CN([C@H](C)CO)C(=O)CCCn2nncc2CO[C@H]1CN(C)S(=O)(=O)c1cccc(C#N)c1	3074
CCCS(=O)(=O)NC(=O)C1(C)CCN(C(=O)c2ccnc(Cl)c2)C1 (centres undefined)	3152
COc1cccc(S(=O)(=O)N(C)C[C@@H]2OCc3cnnn3CCCC(=O)N([C@H](C)CO)C[C@H]2C)c1	3530
O=C(Nc1ccn(C2CCC(CO)O2)c(=O)n1)c1ccccc1 (centres undefined)	4997
SMILES	Autofluor counter
CC(=O)Nc1cc(-c2cccc(C(=O)N(C)C)c2)cn2c(-c3ccc(F)cc3)cnc12	3689
Cc1ccc(S(=O)(=O)N2CCCCC2)cc1NC(=O)CN1CCCC1c1cccs1 (centres undefined)	3831
COc1cccc(Cn2c3ccc(NC(=O)CC(C)C(F)(F)F)cc3c(=O)n2C)c1 (centres undefined)	3762
COc1ccc(CNC(=O)C2(C)Cc3c(-c4ccccc4)ccnc3O2)cc1OC (centres undefined)	3878
C=CCOC(=O)N1Cc2ccccc2-n2nncc2C1	2813
CCNC(=O)N(C)c1c(CC)nc2ccc(C(=O)N3CCN(S(=O)(=O)CC)CC3)cn12	3975
N#CC(c1ccccc1)c1ccc([N+](=O)[O-])cc1 (centres undefined)	6462
C[C@@H]1CN([C@H](C)CO)C(=O)CCCn2nncc2CO[C@H]1CN(C)Cc1cccc2c1OCCCO2	3799
O=C(NCCN1CCC(n2c(=O)[nH]c3ccccc32)CC1)c1ccc(F)cc1Cl	6070
O=C1CN(C(=O)COC(=O)c2cc(Cl)ccc2[N+](=O)[O-])c2ccccc2N1	2802
CC(=O)n1cc(C2CC(=O)OC3=C2CC(=O)C(C)(C)C3)c2ccccc21 (centres undefined)	3848
Cc1cc(Br)cn2c(Cc3ccccc3)c(C3CCCCC3)nc12	6259
CCCCN1C(=O)C(CC(=O)NCCN2CCOCC2)CC(C(=O)N(C)C)=C1C (centres undefined)	3552
N#Cc1ccc(-c2nc3ccc(Cl)cn3c2Cc2ccccc2)cc1	12067
COC(=O)c1ccc2nc(C3CCCCC3)c(Cc3ccccc3)n2c1	6963
NC(COCc1ccccc1)c1csc(Nc2ccc(C(F)(F)F)cn2)n1 (centres undefined)	3848
COc1ccc(CN2CCC(C)(Oc3ccc4c(c3)OCO4)C2)c2ccccc12 (centres undefined)	3668
CC(C)COC(=O)N1CCCCC1c1cc(C(=O)Nc2ccccc2)no1 (centres undefined)	3918
C#Cc1ccc(NC(=O)C2(C)CCN2C(=O)Cc2ccc(C(C)(C)C)cc2)cc1 (centres undefined)	3638
NC(COCc1ccccc1)c1csc(Nc2ccc(S(N)(=O)=O)cc2)n1 (centres undefined)	3536
Cc1ccc(S(=O)(=O)N2C[C@H]3C(=O)C[C@@H](c4cccc(Cl)c4)N(S(=O)(=O)c4ccc(C)cc4)[C@H]3C[C@H]2c2cccc(Cl)c2)cc1	2943
CCC(c1nnnn1-c1ccc2c(c1)OCCO2)N1CCN(c2ncccc2C(F)(F)F)CC1 (centres undefined)	5778&5667
O=S1(=O)C[C@@H](N2CCN(CCO)CC2)[C@H](COCc2ccccc2)N1	4263
CCCCN1C(=O)C(CC(=O)NC2CCCCC2)CC(C(=O)N(CC)CC)=C1C (centres undefined)	3381
CCc1nc2ccc(C(=O)N(CC)CCN(C)C)cn2c1N(CC)CCOC	4151
SMILES	Autofluor counter
O=C1NCN(c2ccccc2)C12CCN(C(c1nnnn1C1CCCC1)C1CC1)CC2 (centres undefined)	5983
CCCCCCNC(=O)OC12CN(C(=O)OC(C)C)N(C(=O)OC(C)C)CC1(O)CN(S(=O)(=O)c1ccc(C)cc1)C2 (centres undefined)	3029
CN[C@@H](CO)C(=O)NC[C@H]1O[C@@H](n2cnc3c(=O)[nH]c(N)nc32)[C@H](O)[C@@H]1O	5534
CSc1cccc(CNC(=O)C2CCC(=O)N(CCc3ccccc3)C2)c1 (centres undefined)	3578
COc1ccc(Cl)cc1NC(=O)CN(C)C(=O)c1cn(-c2ccccc2)nc1-c1cccs1	3903
COc1ccc(C(O)c2ncc(-c3ccccc3C)[nH]2)cc1F (centres undefined)	2940

These rows are one share of the data. The share of hits here may be higher or lower than overall.
